From PubChem
NOMO-1 viab: STK33 inhibitor candidate reducing NOMO-1 cell viability. NOMO-1 AML viability, CellTiter-Glo luminescence, 72 h. inhibition, % (test concentration not listed). actives 7.5% (n = 37,000). AID 2330;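 active means most replicates above 80%; inconclusive means exactly half above 80%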;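 further: wells of about 30 µL received 25 nL stock; 0% = median of vehicle wells and 100% = reference inhibitor level; the first replicate is given; inactives centre near 10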
* marks the source's active call; other numbers are inactive results; ? = inconclusive. These rows are one share of the data, so the mix of outcomes need not match the whole.

SMILES	NOMO-1 viab
Cn1c(SCC(=O)n2c3c(c4ccccc42)CCCC3)nnc1-c1ccco1	109*
C[C@H]1CN([C@@H](C)CO)C(=O)Cc2cc(NC(=O)Cc3cn(C)c4ccccc34)ccc2O[C@@H]1CN(C)S(=O)(=O)c1cccs1	13
CC[N+](CC)(CC)CC(=O)Nc1c(C)cccc1C	20
COc1ccc2nc(SCC(=O)Nc3cccc(C(F)(F)F)c3)[nH]c2c1	53
CCCc1cc(=O)[nH]c(SCC(=O)Nc2ccccc2C)n1	-5
COc1cc(O)c(C(=O)/C=C/c2ccccc2)c(OC)c1	93*
C[C@@H]1CN([C@@H](C)CO)C(=O)Cc2cc(NC(=O)Nc3cccc4ccccc34)ccc2O[C@@H]1CN(C)C(=O)Nc1ccc(C(F)(F)F)cc1	107*
C[C@H](CO)N1C[C@H](C)[C@H](CN(C)S(=O)(=O)c2ccc(Cl)cc2)Oc2ccc(NC(=O)Nc3cccc4ccccc34)cc2C1=O	2
N#Cc1c(NC(=O)CSc2ncn[nH]2)sc2c1CCCCC2	39
NC(N)=NS(=O)(=O)c1ccc(NC(=S)NC(=O)/C=C/c2ccc(F)cc2)cc1	-24
C[C@@H]1CN([C@H](C)CO)C(=O)Cc2cc(NC(=O)C3CC3)ccc2O[C@@H]1CN(C)Cc1ccc(-c2ccccc2)cc1	38
COc1ccc(CN=C(N)N)cc1	39
CCCN(C)C[C@H]1OCCCC[C@@H](C)Oc2ccc(NS(=O)(=O)c3ccc(C)cc3)cc2C(=O)N([C@H](C)CO)C[C@@H]1C	15
C[C@H]1CN([C@@H](C)CO)C(=O)c2cc(NS(=O)(=O)c3ccc(F)cc3)ccc2O[C@@H]1CN(C)Cc1ccc(-c2ccccc2)cc1	100*
C[C@@H]1CN([C@@H](C)CO)C(=O)c2cccc(NC(=O)NC3CCCCC3)c2O[C@@H]1CN(C)C(=O)Nc1ccc2c(c1)OCO2	-4
C[C@H]1CN([C@@H](C)CO)C(=O)Cc2cc(NC(=O)C3CCCCC3)ccc2O[C@@H]1CN(C)Cc1ccc(C(F)(F)F)cc1	51
O=C(Nc1ccc(S(=O)(=O)Nc2ccccn2)cc1)c1cccnc1	-16
C[C@@H]1CCCCO[C@@H](CN(C)C(=O)NC2CCCCC2)[C@@H](C)CN([C@H](C)CO)C(=O)c2cc(NC(=O)Cc3ccccc3)ccc2O1	13
Cc1noc(C)c1S(=O)(=O)N(C)C[C@@H]1OCCCC[C@@H](C)Oc2ccc(NC(=O)CCCCCC(=O)Nc3ccccc3N)cc2C(=O)N([C@H](C)CO)C[C@@H]1C	27
CC(C)NC(=O)N(C)C[C@H]1Oc2ccc(NS(=O)(=O)c3ccc(F)cc3)cc2C(=O)N([C@H](C)CO)C[C@H]1C	15
C[C@H]1CN([C@@H](C)CO)C(=O)c2cc(NC(=O)NC3CCCCC3)ccc2O[C@@H]1CN(C)Cc1ccc(C(=O)O)cc1	26
N#Cc1ccc(NC(=O)Cn2ccc([N+](=O)[O-])n2)cc1	35
Cc1ccc(S(=O)(=O)Nc2cccc3c2O[C@H](CN(C)C(=O)Nc2ccc4c(c2)OCO4)[C@@H](C)CN([C@@H](C)CO)C3=O)cc1	6
C[C@H]1CN([C@@H](C)CO)C(=O)c2cc(NS(C)(=O)=O)ccc2O[C@@H]1CN(C)C(=O)NC1CCCCC1	2
Cc1cc(C(=O)Nc2cccc3c2O[C@@H](CN(C)Cc2ccc(C(F)(F)F)cc2)[C@@H](C)CN([C@@H](C)CO)C3=O)n(C)n1	31
Cc1ccc(S(=O)(=O)Nc2ccc3c(c2)C(=O)N([C@H](C)CO)C[C@@H](C)[C@H](CN(C)Cc2ccc(Oc4ccccc4)cc2)O3)cc1	84*
COc1ccc(CCNC(=O)c2nc3ncccn3n2)cc1OC	3
C[C@@H]1CN([C@H](C)CO)C(=O)c2cccc(NC(=O)c3ccc(-c4nccs4)cc3)c2O[C@@H]1CN(C)S(=O)(=O)c1ccccc1	3
COc1ccc(C)cc1S(=O)(=O)N1CCCC(C(N)=O)C1 (configuration not stated)	-16
C[C@@H]1CN([C@H](C)CO)C(=O)c2cc(NS(=O)(=O)c3cn(C)cn3)ccc2O[C@@H]1CN(C)CC1CC1	23

3 entries out of the list, ordered by SMILES length, ascending:
SMILES	NOMO-1 viab
COc1ccc(C)cc1S(=O)(=O)N1CCCC(C(N)=O)C1 (configuration not stated)	-16
C[C@H]1CN([C@@H](C)CO)C(=O)c2cc(NC(=O)NC3CCCCC3)ccc2O[C@@H]1CN(C)Cc1ccc(C(=O)O)cc1	26
Cc1cc(C(=O)Nc2cccc3c2O[C@@H](CN(C)Cc2ccc(C(F)(F)F)cc2)[C@@H](C)CN([C@@H](C)CO)C3=O)n(C)n1	31

More entries:
SMILES	NOMO-1 viab
Cc1ccc(S(=O)(=O)N(C)C[C@H]2Oc3ccc(NC(=O)CCCN(C)C)cc3C(=O)N([C@@H](C)CO)C[C@H]2C)cc1	-19
COc1ccc(S(=O)(=O)Nc2cccc3c2O[C@H](CN(C)S(=O)(=O)c2cccs2)[C@H](C)CN([C@H](C)CO)C3=O)cc1	39
Cc1ccc(N(Cc2cc3ccccc3[nH]c2=O)C(=O)c2cccnc2)cc1	18
C[C@@H]1CN([C@H](C)CO)C(=O)Cc2cc(N(C)C)ccc2O[C@@H]1CN(C)Cc1ccc(C(=O)O)cc1	25
CCOC(=O)c1cc(C#N)c(Sc2n[nH]c(C(C)(C)C)n2)nc1C(F)(F)F	65
CO[C@@H]1[C@@H](OC(N)=O)[C@@H](O)[C@H](Oc2ccc3c(O)c(NC(=O)c4ccc(O)c(CC=C(C)C)c4)c(=O)oc3c2C)OC1(C)C	24
C[C@H]1CN([C@@H](C)CO)C(=O)Cc2cc(NC(=O)Nc3cccc4ccccc34)ccc2O[C@H]1CN(C)Cc1ccc(C(=O)Nc2ccccc2N)cc1	105*
COc1ccc(S(=O)(=O)Nc2ccc3c(c2)C(=O)N([C@H](C)CO)C[C@H](C)[C@@H](CN(C)S(=O)(=O)c2cn(C)cn2)OCCCC[C@@H](C)O3)cc1	7
Cc1ccc(S(=O)(=O)Nc2ccc3c(c2)CC(=O)N([C@@H](C)CO)C[C@H](C)[C@H](CN(C)Cc2ccc4c(c2)OCO4)O3)cc1	35
COc1ccccc1NC(=O)C1=C(C)Nc2ncnn2C1c1cc(Br)c(O)c(OC)c1 (configuration not stated)	2
C[C@H](CO)N1C[C@H](C)[C@H](CN(C)Cc2ccc(Oc3ccccc3)cc2)Oc2ccc(NC(=O)CCCN(C)C)cc2CC1=O	11
Cc1c(NC(=S)NC(=O)COc2ccccc2)cccc1-c1nc2ccccc2s1	6
CC(C)NC(=O)Nc1ccc2c(c1)CC(=O)N([C@@H](C)CO)C[C@@H](C)[C@@H](CN(C)S(=O)(=O)c1ccccc1)O2	-11
C[C@H](CO)N1C[C@H](C)[C@H](CN(C)Cc2ccncc2)Oc2c(NC(=O)Nc3ccc(F)cc3)cccc2C1=O	-4
COc1ccc(OC)c(NS(=O)(=O)c2ccccc2)c1	23

Taken from above:
NOMO-1 viab result of C[C@H]1CN([C@@H](C)CO)C(=O)Cc2cc(NC(=O)Cc3cn(C)c4ccccc34)ccc2O[C@@H]1CN(C)S(=O)(=O)c1cccs1 → 13
NOMO-1 viab result of Cc1ccc(S(=O)(=O)Nc2ccc3c(c2)CC(=O)N([C@@H](C)CO)C[C@H](C)[C@H](CN(C)Cc2ccc4c(c2)OCO4)O3)cc1 → 35
NOMO-1 viab result of COc1ccc(CCNC(=O)c2nc3ncccn3n2)cc1OC → 3
NOMO-1 viab result of CC[N+](CC)(CC)CC(=O)Nc1c(C)cccc1C → 20
NOMO-1 viab result of Cc1cc(C(=O)Nc2cccc3c2O[C@@H](CN(C)Cc2ccc(C(F)(F)F)cc2)[C@@H](C)CN([C@@H](C)CO)C3=O)n(C)n1 → 31

(listing goes on)
SMILES	NOMO-1 viab
COc1ccc(S(=O)(=O)N(C)C[C@@H]2Oc3c(NC(=O)NC4CCCCC4)cccc3C(=O)N([C@H](C)CO)C[C@H]2C)cc1	22
O=C(NCc1ccco1)c1cccnc1-c1nc2ccccc2s1	34
C[C@H]1CN([C@@H](C)CO)C(=O)c2cc(NC(=O)NC3CCCCC3)ccc2O[C@H]1CN(C)C	7
O=C(CSc1nnc(-c2ccncc2)n1-c1ccccc1)Nc1ccc(OC(F)(F)F)cc1	14
O=[N+]([O-])c1ccccc1S(=O)(=O)Nc1cccnc1	-4
C[C@H]1CN([C@@H](C)CO)C(=O)c2cc(NC(=O)CCCN(C)C)ccc2O[C@@H]1CN(C)Cc1ccc(-c2ccccc2)cc1	12
C[C@@H]1CCCCO[C@H](CN(C)S(=O)(=O)c2ccc(F)cc2)[C@@H](C)CN([C@H](C)CO)C(=O)c2cc(N(C)C)ccc2O1	14
C[C@H](CO)N1C[C@H](C)[C@H](CN(C)S(=O)(=O)c2ccc(Cl)cc2)Oc2ccc(NC(=O)C3CC3)cc2CC1=O	?
NS(=O)(=O)c1ccc(NC(=O)CSc2nnc(-c3ccccc3F)n2-c2ccccc2)cc1	6
COc1ccc(S(=O)(=O)N(C)C[C@H]2Oc3ccc(NC(=O)Cc4ccccc4)cc3C(=O)N([C@@H](C)CO)C[C@@H]2C)cc1	6
C[C@@H]1CN([C@@H](C)CO)C(=O)c2cc(N(C)C)ccc2O[C@H]1CN(C)S(=O)(=O)c1cn(C)cn1	28
Cc1cc(=O)n2c3ccccc3n(CC(O)Cn3ccnc3)c2c1C#N (configuration not stated)	3
COc1ccccc1NC(=O)COc1ccc(-c2nn(C)c(=O)c3ccccc23)cc1	55
CC(=O)Nc1ccc(S(=O)(=O)Nc2ccc(NC(=O)c3ccco3)cc2)cc1	10
CC(=O)Nc1nonc1-c1nc2ccccc2n1Cc1ccccc1Br	115*

Structures from the list above that contain a furan ring, fused or not, in the order listed:
SMILES	NOMO-1 viab
Cn1c(SCC(=O)n2c3c(c4ccccc42)CCCC3)nnc1-c1ccco1	109*
O=C(NCc1ccco1)c1cccnc1-c1nc2ccccc2s1	34
CC(=O)Nc1ccc(S(=O)(=O)Nc2ccc(NC(=O)c3ccco3)cc2)cc1	10

Next part.
SMILES	NOMO-1 viab
C[C@H]1CN([C@@H](C)CO)C(=O)c2cccc(NC(=O)C3CCCCC3)c2O[C@H]1CN(C)CC1CC1	8
O=C(Cn1c(C(F)(F)F)nc2ccccc21)NCCN1CCCC1	-1
COc1ccc(S(=O)(=O)N(C)C[C@H]2Oc3c(NS(=O)(=O)c4ccccc4)cccc3C(=O)N([C@@H](C)CO)C[C@H]2C)cc1	34
COC(=O)c1cc(Cc2ccccc2)sc1NC(=O)c1cc(-c2cccnc2)nc2ccccc12	9
C[C@H]1CN([C@@H](C)CO)C(=O)Cc2cc(NC(=O)Cc3cn(C)c4ccccc34)ccc2O[C@@H]1CN(C)Cc1ccccc1	32
O=C(Nc1ccccc1C(=O)NCCOc1ccccc1)c1ccc(Cl)cc1	21
C[C@@H]1CN([C@H](C)CO)C(=O)c2cccc(NC(=O)c3ccc(-c4nccs4)cc3)c2O[C@@H]1CN(C)S(=O)(=O)c1ccc(Cl)cc1	3
N#Cc1c(/N=C/c2ccccc2)sc2c1CCCC2	4
N#Cc1ccccc1NC(=O)CCCN1C(=O)c2ccccc2C1=O	14
C[C@H]1CN([C@@H](C)CO)C(=O)c2cc(NS(=O)(=O)c3ccc(F)cc3)ccc2O[C@@H]1CN(C)C(=O)Nc1ccc(F)cc1	-23
C[C@H](CO)N1C[C@H](C)[C@H](CN(C)CC2CC2)Oc2ccc(NC(=O)C3CCCCC3)cc2CC1=O	-10
O=C(c1cccs1)N1N=C2c3ccccc3CCC2C1c1ccccc1Cl (configuration not stated)	70
C[C@H]1CN([C@@H](C)CO)C(=O)Cc2cc(NC(=O)c3ccncc3)ccc2O[C@H]1CN(C)C(=O)Nc1ccc2c(c1)OCO2	-9
COC(=O)C1=COC(O[C@@H]2O[C@H](CO)[C@@H](O)[C@H](O)[C@H]2O)[C@@H]2[C@@](C)(O)[C@@H](OC(=O)/C=C/c3ccc(OC)cc3)C[C@]12O (some centres not stated)	3
COc1ccc(NC(=O)Nc2cccc3c2O[C@@H](CN(C)Cc2ccc(-c4ccccc4)cc2)[C@H](C)CN([C@@H](C)CO)C3=O)cc1	18
C[C@@H]1CN([C@H](C)CO)C(=O)Cc2cc(NS(=O)(=O)c3cn(C)cn3)ccc2O[C@H]1CN(C)C(=O)Nc1cccc2ccccc12	5
C[C@H](CO)N1C[C@H](C)[C@@H](CN(C)C(=O)Nc2cccc3ccccc23)Oc2c(NC(=O)Nc3ccc(C(F)(F)F)cc3)cccc2C1=O	117*
Cc1nn(C(C)(C)C)c(OC(=O)c2ccc(Cl)cc2)c1S(=O)(=O)c1ccccc1	121*
C[C@H]1CN([C@@H](C)CO)C(=O)c2cccc(NC(=O)c3nc4ccccc4s3)c2O[C@@H]1CN(C)S(=O)(=O)c1cn(C)cn1	-9
COc1cccc(/C=C2\N=C(SC)SC2=O)c1	51
Cc1ccccc1OCCNC(=O)c1ccco1	-3
C[C@H](CO)N1C[C@H](C)[C@@H](CN(C)C(=O)Nc2ccc3c(c2)OCO3)Oc2c(NS(=O)(=O)c3ccc(F)cc3)cccc2C1=O	10
COc1ccc(CN(C)C[C@@H]2Oc3c(NC(=O)Nc4c(C)noc4C)cccc3C(=O)N([C@@H](C)CO)C[C@H]2C)cc1	-5
Cc1ccc(S(=O)(=O)N(C)C[C@@H]2Oc3ccc(NS(=O)(=O)c4cn(C)cn4)cc3CC(=O)N([C@@H](C)CO)C[C@@H]2C)cc1	11
C[C@@H]1CN([C@@H](C)CO)C(=O)c2cccc(NC(=O)c3cnccn3)c2O[C@H]1CN(C)Cc1ccc(C(=O)Nc2ccccc2N)cc1	70
COc1ccc(NC(=O)Nc2ccc3c(c2)C(=O)N([C@H](C)CO)C[C@H](C)[C@@H](CN(C)S(=O)(=O)c2ccc(Cl)cc2)OCCCC[C@@H](C)O3)cc1	31
CNC[C@H]1Oc2ccc(NC(=O)NC3CCCCC3)cc2C(=O)N([C@@H](C)CO)C[C@H]1C	33
C[C@@H]1CN([C@H](C)CO)C(=O)c2cc(N(C)C)ccc2O[C@@H]1CN(C)S(=O)(=O)c1cccs1	-5
C[C@H](CO)N1C[C@H](C)[C@@H](CN(C)S(C)(=O)=O)Oc2ccc(NS(=O)(=O)c3ccccc3)cc2C1=O	25
